CDC25B CDK2 inh = human CDC25B-CDK2/CyclinA binding inhibition | P30305+P24941 | HTRF CDC25B-CDK2/CyclinA binding, anti-His/anti-Flag; stronger effect = higher value | z-score (concentration not given with the values) | 0.72% of 94,000 active | AID 1259370;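 also: score is relative to mean and SD of negative controls; strong numbers were not always called active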
TAR Tat displ = HIV-1 TAR-Tat binding disruption; 0.6% of 100,000 active; z-score (no concentration beside the values); HIV-1 TAR RNA, Tat peptide displacement FRET; stronger effect = higher value;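 also: score is relative to mean and SD of negative controls; some compounds called inactive have numbers as strong as hits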
* marks the source's active call; other numbers are inactive results; . = not tested or not shown.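 The calls were made as follows: active = z-score from 3 up in half or more of its runs; inactive = the rest.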

Molecule | CDC25B CDK2 inh | TAR Tat displ
O=c1c2ccccc2nnn1C1CCN(Cc2ccccc2)CC1 | . | 1.29
Cc1ccc(NC(=O)NCC2CCN(C3CCCC3)C2)cc1 (stereo not drawn) | -1.59 | 0.52
Cc1ccc(-c2cnnc(-n3nc(C)c4c3NC(=O)CC4c3ccc4c(c3)OCO4)n2)cc1 (stereo not drawn) | -0.69 | 1.92
CCOC(=O)C1CCN(S(=O)(=O)c2ccc3c(c2)NC(=O)CO3)CC1 | . | 1.24
CC(=O)c1ccc(N2CCN(c3nc4ccccc4c4nc(-c5cccnc5)nn34)CC2)cc1 | -0.92 | .
COCCCn1c(=O)c(C#N)cc2c(=O)n3cc(C)ccc3nc21 | 2.23 | -2.87
O=C1NC(=O)C2(CCC(C(=O)O)C2)N1 (stereo not drawn) | -1.53 | 1.32
CCOC(=O)c1c(N)oc2c(-c3ccc(C)c(C)c3)c3c(C(=O)OCC)c(N)oc3cc12 | -1.6 | -1.07
Cc1ccc(N2C(=O)SC(Nc3ccc(S(N)(=O)=O)cc3)C2=O)cc1 (stereo not drawn) | -1.1 | 0.57
Nc1c(Cl)cc(C(=O)Nc2cc(Cl)c(Cl)cc2Cl)cc1Cl | -1.47 | .
COC(=O)C(C)N(C#N)c1nc(C)cc(C)n1 (stereo not drawn) | 0.96 | 0.61
O=S(=O)(c1ccccc1F)N1CCC(c2nc3ccccc3s2)CC1 | -0.07 | 0.35
Cn1c(SCCOc2ccc(Cl)cc2)nnc1-c1ccc2c(c1)OCCCO2 | . | 1.74
CC(C)CCN(Cc1ccco1)C(=O)c1cc2c(s1)-c1ccc(Cl)cc1S(=O)(=O)C2 | -1.19 | 1.11
CC(C)(C)c1[nH]nc2c1C(c1ccc(Cl)cc1)C(C#N)=C(N)O2 (stereo not drawn) | -1.76 | 0.73
O=C(O)C1CCC1C(=O)Nc1nnc(C2CC2)s1 (stereo not drawn) | -2.16 | .
C1=CCC(CN2CCN(Cc3ccco3)CC2)CC1 (stereo not drawn) | -1.37 | 0.73
Cc1cc(/N=C\N(C)C)n2c(nc3ccccc32)c1C#N | -1.34 | .
CCC(C)N(CCNC(=O)C1CCN(c2ncnc3c2nc2n3CCCCC2)CC1)Cc1ccco1 (stereo not drawn) | . | 0.75
Cc1ccc(-c2nnc(N3CCOCC3)c3ccccc23)cc1C | -1.43 | 0.09

(cont.)
Molecule | CDC25B CDK2 inh | TAR Tat displ
COc1cccc(CN2CCN(Cc3ccc4c(c3)OCO4)CC2)c1 | . | 0.79
CCN(CC)CCOc1ccc2c(c1)C(=O)c1cc(OCCN(CC)CC)ccc1-2 | . | 0.27
CC1Cc2ccccc2N1C(=O)Cn1c(=O)oc2cc(S(=O)(=O)N3CCCCCC3)ccc21 (stereo not drawn) | -3.51 | .
CC1C(=O)N2CCCc3cc(S(=O)(=O)N4CCC(C(N)=O)CC4)cc1c32 (stereo not drawn) | . | 1.16
O=C(O)c1oc(C(=O)O)c(OCc2ccccc2)c1OCc1ccccc1 | -0.81 | .
Cc1nn(-c2ccc(Cl)cc2)cc1-c1noc(C(=O)NCC2CCCO2)n1 (stereo not drawn) | . | 1.7
O=C1c2cccnc2C(Nc2ccc(F)c(F)c2)N1Cc1cccs1 (stereo not drawn) | . | 1.11
CCOCCCNc1nc(NCc2ccc(Cl)cc2)c2cnn(C)c2n1 | . | 1.64
O=C(Cn1ncn2c(cc3ccccc32)c1=O)N1CCCCC1 | -1.38 | 4.99
COc1ccc(Nc2nc(N)nc(CN3CCN(c4cccc(OC)c4)CC3)n2)cc1 | . | 2.5
O=C1OC(N2CCN(Cc3ccc4c(c3)OCO4)CC2)c2ccccc21 (stereo not drawn) | -1.26 | .
O=c1c(-c2ccccc2)c(N2CCCCC2)c1=O | . | 1.86
Cc1ccc(-c2cc(N3CCN(S(=O)(=O)c4cccc5nsnc45)CC3)ncn2)cc1 | . | 1.69
Cc1ccc(CNc2nc(-c3ccco3)nn2S(C)(=O)=O)cc1 | -1.78 | 0.82
O=C(CSc1nc2sc3c(c2c(=O)[nH]1)CCCC3)NCCCN1CCOCC1 | -0.08 | 0.39
CCOc1ccc(C2c3c(oc4ccccc4c3=O)C(=O)N2c2nc(C)c(C)s2)cc1 (stereo not drawn) | -2.19 | 0.14
CN(C(=O)c1cc2c(s1)-c1ccsc1CC2)C1CCCCC1 | . | 0.08
Cn1c(=O)c2c(nc(N3CCOCC3)n2Cc2ccccc2)n(C)c1=O | 0.72 | -0.27
O=C1C2C3c4ccccc4C(c4ccccc43)C2C(=O)N1c1ccncc1 (stereo not drawn) | -0.27 | -0.25
CN(C)CCCN(C(=O)COc1ccccc1)c1nc2ccc(Br)cc2s1 | . | 0.44

Later entries.
Molecule | CDC25B CDK2 inh | TAR Tat displ
O=C(C1CCC1)N1CCc2cc(S(=O)(=O)N3CCN(c4ccc(F)cc4)CC3)ccc21 | -2.48 | .
COc1ccc(NC(=O)N2CC3CCCN3c3ccccc32)cc1 (stereo not drawn) | . | -6.62
Cc1cc(C)c(Nc2ncnc3c2cnn3C)c(C)c1 | . | 0.78
Cc1ccc(N2CCN(S(=O)(=O)c3c(C)nc4sccn4c3=O)CC2)c(C)c1 | . | -1.54
O=S(=O)(NCc1ccc2c(c1)OCO2)c1ccc2c(c1)OCCO2 | -0.32 | 0.27
Cc1ccc(S(=O)(=O)N(CCS(=O)(=O)N2CCNCC2)Cc2ccccc2Cl)cc1 | . | 2.42
CCN1CCC2(CC1)OC(=O)C(C)=C2C(=O)NCCN1CCCCC1C (stereo not drawn) | . | 1.62
O=C1N(Cc2ccccc2F)c2ccccc2S(=O)(=O)N1c1cc(F)ccc1F | . | 1.47
COc1ccccc1-c1c(C)nn2c(N3CCCC3)cc(C)nc12 | . | 1.45
O=C(Cn1cc2c(n1)CCCCC2)NC1CCCCCC1 | -1.5 | .
CCC(=O)Nc1ccc2nc(SCc3cc(=O)n4oc(C)cc4n3)sc2c1 | . | 0.21
Cc1cccn2c(=O)c3cc(C(=O)NCC4CCCO4)n(C)c3nc12 (stereo not drawn) | -1.5 | -0.15
COc1ccc(Br)cc1-c1cc(C(=O)O)c2c(-c3ccc(F)cc3)[nH]nc2n1 | . | 1.11
O=c1cc(CSc2ccc(F)cc2)nc2sc3c(n12)CCCC3 | . | 0.42
O=c1cc(CSCc2ccc(Cl)cc2)nc2sc(-c3ccco3)nn12 | -1.85 | 2.38
CCCc1nn2cc(-c3ccc(Br)cc3)nc2s1 | 0.71 | 2.01
COCCN=C1NS(=O)(=O)C(c2ccc(F)cc2)=C1C | . | 0.63
O=c1ccc(-c2ccc(S(=O)(=O)N3CCCc4ccccc43)o2)n[nH]1 | . | 0.82
Cc1cccc(S(=O)(=O)NCCc2cn3ccc(C)cc3n2)c1 | 0.13 | .
O=C(Nc1ccc2snnc2c1)NC1CCCCC1 | -2.01 | -0.4

(cont.)
Molecule | CDC25B CDK2 inh | TAR Tat displ
CCn1cc(C(=O)O)c(=O)c2cc(F)c(N3CCN(S(=O)(=O)c4ccc(Cl)cc4)CC3)cc21 | 0.69 | 2.2
Cc1nc(CSc2n[nH]c(=O)n2-c2cccc(F)c2)cs1 | -3.05 | .
COC(=O)c1c(N)n(-c2ccc(OC)c(OC)c2)c2nc3ccccc3nc12 | 10.2* | 1.17
O=C(O)c1ccc(Nc2nc3ccccc3n3cnnc23)cc1 | -2.3 | -1.42
O=C(Nc1nccs1)c1ccc(Br)c(S(=O)(=O)N2CCOCC2)c1 | -2.32 | 2.09
COc1ccc(C2CC(=O)C3=C(C2)Nc2ccccc2NC3c2ccc(Cl)cc2)cc1OC (stereo not drawn) | -2.69 | 1.42
O=C1c2[nH]nc(-c3ccccc3O)c2C(c2cccc(Br)c2)N1Cc1ccncc1 (stereo not drawn) | 1.36 | -0.49
CC1=C(C(=O)Nc2ccc(Cl)cc2)C2(CCN(C(C)C)CC2)OC1=O | . | 0.4
N#Cc1cc(I)c(C#N)c(I)c1 | -2.26 | .
Cc1noc(C)c1C(=O)O/N=C(\N)c1cc(C(F)(F)F)cc(C(F)(F)F)c1 | 0.28 | .
O=C(N[C@@H](Cc1ccccc1)C(=O)CCl)OCc1ccccc1 | -2.21 | 0.24
CCc1ccccc1N(C)S(=O)(=O)c1ccc(-c2cc(C)no2)s1 | . | -0.34
CCCC(=O)N1CCN(c2nc3cc(Br)ccc3n3cccc23)CC1 | -1.33 | 1
CCOC(=O)c1ccc(Oc2nc(N(C)C)nc(N(C)C)n2)cc1 | -1.41 | -0.49
CC(C)c1c(O)ccc2c1CCC1C(C)(C(=O)O)CCCC21C (stereo not drawn) | . | -0.6
COc1cccc(-c2nc3c(c(=O)[nH]2)Cc2cccc(OC)c2O3)c1 | -0.49 | 1.66
Cn1cccc1Cc1nnc(SCC(=O)Nc2ccc(Br)cc2)n1C | -1.44 | 0.96
O=C(c1ccco1)N1CCN(C(=O)C2CCCN(c3ncnc4c3nc3n4CCCCC3)C2)CC1 (stereo not drawn) | . | 0.66
O=C1c2ccccc2C(=O)N1Nc1ccc(N2CCOCC2)cc1 | -0.77 | .
CCOC(=O)C1=C(C)NC2=C(C(=O)CC(C)(C)C2)C1c1ccc(OC)c(O)c1 (stereo not drawn) | . | -1.1

Pulled one by one from above:
Molecule | CDC25B CDK2 inh | TAR Tat displ
O=C1c2ccccc2C(=O)N1Nc1ccc(N2CCOCC2)cc1 | -0.77 | .
O=C1OC(N2CCN(Cc3ccc4c(c3)OCO4)CC2)c2ccccc21 (stereo not drawn) | -1.26 | .
COC(=O)c1c(N)n(-c2ccc(OC)c(OC)c2)c2nc3ccccc3nc12 | 10.2* | 1.17
O=c1cc(CSCc2ccc(Cl)cc2)nc2sc(-c3ccco3)nn12 | -1.85 | 2.38
COCCCn1c(=O)c(C#N)cc2c(=O)n3cc(C)ccc3nc21 | 2.23 | -2.87
Cc1ccc(-c2cnnc(-n3nc(C)c4c3NC(=O)CC4c3ccc4c(c3)OCO4)n2)cc1 (stereo not drawn) | -0.69 | 1.92
CCN1CCC2(CC1)OC(=O)C(C)=C2C(=O)NCCN1CCCCC1C (stereo not drawn) | . | 1.62

Further records.
Molecule | CDC25B CDK2 inh | TAR Tat displ
CCCNc1sc(S(C)(=O)=O)nc1S(=O)(=O)c1ccc(C)cc1 | -0.89 | 0.27
O=C(Cc1csc2nc(-c3ccc(F)cc3)cn12)NC1CCCCC1 | . | -0.42
Cc1ccc(-c2nc(-c3cc4c([nH]c3=O)CC(c3ccco3)CC4=O)sc2C)cc1 (stereo not drawn) | -0.44 | -0.16
Cc1ccc(Cl)cc1N1CCN(S(=O)(=O)c2cn(C)cn2)CC1 | . | -0.19
CN(CC(=O)NC1CCCCCCC1)S(=O)(=O)c1ccc2c(c1)CCC(=O)N2 | 1.42 | .
CC1CCN(C(=O)C(C)n2ncn3c(cc4occc43)c2=O)CC1 (stereo not drawn) | 1.94 | 0.55
O=c1c(N2CCOCC2)c(N2CCOCC2)c1=O | -2.03 | .
COC(=O)C1C(=O)c2c([nH]c(C(=O)OCC3CCCO3)c2C)CC1C (stereo not drawn) | -0.46 | 2.11
COCCNC(=O)c1cc2nc3c(c(C(F)(F)F)n2n1)CCc1ccccc1-3 | 2.56 | 1.35
CC1(C)CC(=O)C2=C(C1)NC1=C(C(=O)CC(C)(C)C1)C2c1cccc(O)c1 | -0.47 | 0.11
Cc1nc2sc(C(c3cccc(Cl)c3)N3CCCCC3)c(O)n2n1 (stereo not drawn) | -0.06 | .
C=CCN(C(=O)Cn1ncc2c(=O)oc3ccccc3c21)c1ccccc1 | -1.79 | -0.28
Cc1ccc(C)c(N2C(=O)Nc3ccccc3S2(=O)=O)c1 | . | 1.83
O=C(O)CC1(CC(=O)Nc2ccc(F)cc2)CCCC1 | -1.15 | 0.65
COc1ccc(OC)c(-c2noc(CSc3nnc(-c4ccncc4)n3-c3ccc(F)cc3)n2)c1 | -1.56 | 1.53
CS(=O)(=O)N1CCCc2cc(C(=O)NCC3CCCO3)ccc21 (stereo not drawn) | -1.46 | 1.37
Cc1ccc(C2Nc3c(C(=O)O)cccc3C3C4CCC(C4)C23)cc1 (stereo not drawn) | -1.51 | 0.96
COCCc1nn2c(=O)cc(COC(=O)c3ccccc3OC)nc2s1 | . | -0.35
CCNS(=O)(=O)c1cc(-c2onc(C)c2C)ccc1OC | . | 1.48
CC1=C(c2ccc(C(C)C)cc2)S(=O)(=O)NC1=NCc1ccc2c(c1)OCO2 | -8.25 | 1.75

(cont.)
Molecule | CDC25B CDK2 inh | TAR Tat displ
CCOC(=O)C1CCN(c2ncnc3c2nc2n3CCCCC2)CC1 | . | -1.02
CN(C)CCCn1nnc2c(=O)oc3ccccc3c21 | 0.71 | 1.95
CCCc1c(C)nc2ncnn2c1Nc1ccc(F)c(Cl)c1 | -1.96 | 1.73
CCC(C)NS(=O)(=O)c1ccc2c(c1)CC(C)N2C(=O)C1CCC1 (stereo not drawn) | . | 0.46
CC12CCC(C(=O)N(c3ccccc3Cl)C1=O)C2(C)C (stereo not drawn) | -2.02 | .
CC1(C)CC(=O)c2cc(OCC(=O)N3CCCC3)ccc2O1 | 0.52 | .
COc1cc(NC(=O)c2cc(OC)c(OC)c(OC)c2)c(OC)cc1Cl | 0.29 | .
CCC(O)c1nc2ccccc2n1Cc1c(F)cccc1Cl (stereo not drawn) | -0.39 | 1.15
CCOC(=O)c1cc(-c2ccc(S(=O)(=O)N3CCN(c4ccc(F)cc4)CC3)s2)on1 | . | 0.09
O=C(Nc1ccc(F)c(F)c1)C1CCC1 | -2.62 | .
COc1ccc(CCN2C(=O)c3[nH]nc(-c4ccccc4O)c3C2c2ccccc2)cc1OC (stereo not drawn) | 0.33 | 3.77
O=C(CCc1nnc2ccc(N3CCOCC3)nn12)Nc1ccc(F)cc1F | . | 1.62
O=C(CSc1ccc(Cl)cc1)N1CCN(c2cc(=O)n3nc(-c4ccccc4)sc3n2)CC1 | . | -0.47
O=C(Nc1ccc(S(=O)(=O)N2CCCCC2)cc1)c1ccc(Br)o1 | 0.26 | .

Screens: PubChem BioAssay, Center for Chemical Genomics, University of Michigan
